HPGD block – blocks human HPGD enzyme activity | P15428 | purified HPGD, NADH fluorescence kinetic, PGE2 substrate | Potency, µM, for the others: top-dose activity change, negative = inhibition, hits mostly inhibitors | hit rate 4.3% among 150,000 | AID 894; active = well fitted inhibition curve with a large enough effect (not every such curve was filed as active); inconclusive = small, poorly fitted or top-dose-only effect, or another doubt; inactive = no such curve, though single readings can be large or run the other way;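 further: top concentration of the series not given in the record; plate controls included wells without enzyme; inactives centre near -10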
Target sequence (P15428 whole entry, looked up): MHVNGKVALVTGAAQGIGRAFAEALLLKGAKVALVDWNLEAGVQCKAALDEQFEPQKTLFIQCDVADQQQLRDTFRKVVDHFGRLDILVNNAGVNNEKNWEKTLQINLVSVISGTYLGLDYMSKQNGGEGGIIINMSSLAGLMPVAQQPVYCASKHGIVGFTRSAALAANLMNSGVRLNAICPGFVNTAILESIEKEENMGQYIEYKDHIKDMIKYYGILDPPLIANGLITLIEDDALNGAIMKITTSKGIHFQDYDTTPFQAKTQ
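20 nM HPGD preincubated 15 min at room temperature with compound in 50 mM Tris-HCl pH 8, 0.01% Tween 20. Started with 1 mM NAD+ and 30 uM prostaglandin E2; NADH fluorescence (360/450 nm) read 5 times over 30-s intervals, last minus first.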
Numbers without * were called inactive; ? = inconclusive; & = joins results of further samples. On the % scale 0 is the no-effect control and ±100 the full control effect; potency means the concentration at half of the fitted maximal effect. A portion of the library, so the mix of outcomes need not match the whole.

| Structure | HPGD block |
| --- | --- |
| CCOC(=O)c1cnc(-n2nc(C)cc2C)nc1NCc1ccccc1 | -20% |
| COc1cccc(-c2nc(CS(=O)CC(=O)NCc3ccccc3)c(C)o2)c1 (stereo not drawn) | -28% |
| CN(C(=O)CCc1nc2ccccc2s1)c1ccccc1 | ? |
| c1ccc(NC2=Nc3ccccc3CC2)cc1 | -11% |
| CC(C)OC(=O)/C(=C\C=C\c1ccccc1)NC(=O)c1ccccc1 | ? |
| O=C(O)C1CCCN1S(=O)(=O)c1cc(Cl)ccc1Cl (stereo not drawn) | -13% |
| CCc1ccccc1NC(=O)CN(C)Cc1nc(N)nc(Nc2ccccc2C)n1 | -5% |
| CC[N+](CC)(CC)CCOc1cccc(OCC[N+](CC)(CC)CC)c1OCC[N+](CC)(CC)CC | -6%&-27% |
| COc1ccc(OC)c(Nc2nc(-c3sc(C)nc3C)cs2)c1 | -15% |
| COc1ccc(-n2c(N)c(C(=O)NCc3ccco3)c3nc4ccccc4nc32)cc1OC | ? |
| O=C(Nc1ccc(Cl)cc1)OCCN1CCN(Cc2ccccc2)CCC1=O | -6% |
| CCS(=O)CCSC(=N)N (stereo not drawn) | -1% |

Arranged by value in HPGD block (descending): five of the compounds above
| Structure | HPGD block |
| --- | --- |
| CCS(=O)CCSC(=N)N (stereo not drawn) | -1% |
| CCc1ccccc1NC(=O)CN(C)Cc1nc(N)nc(Nc2ccccc2C)n1 | -5% |
| O=C(Nc1ccc(Cl)cc1)OCCN1CCN(Cc2ccccc2)CCC1=O | -6% |
| COc1ccc(OC)c(Nc2nc(-c3sc(C)nc3C)cs2)c1 | -15% |
| COc1cccc(-c2nc(CS(=O)CC(=O)NCc3ccccc3)c(C)o2)c1 (stereo not drawn) | -28% |

Further results follow.
| Structure | HPGD block |
| --- | --- |
| O=C(OCc1nc2ccccc2s1)c1cnccn1 | -8% |
| Cc1cccc(OCC(=O)OCC(=O)c2c(N)n(C)c(=O)n(C)c2=O)c1 | -9% |
| Cc1occc1C(=O)NNC(=S)NCc1ccccc1 | -12% |
| O=C(OCC(=O)N1CCCC1)c1cccs1 | -12% |
| CCOC(=O)c1cnc(SC)nc1Oc1cccc(NS(=O)(=O)c2ccc(Cl)cc2)c1 | -12% |
| Fc1ccc(CN2CCN3CCCC3C2C2CCCCC2)cc1F (stereo not drawn) | -6% |
| O=C(CN1CCN(c2ccc(Cl)cc2)CC1)N1CCCC1 | -2% |
| C/C(=N\n1nnnc1Nc1ccccc1)c1ccc(N)cc1 | -20% |
| CC(C)(C)NC(=O)CSc1ccc(C(C)(C)C)cc1 | -29% |
| C/C(CCC(=O)O)=N/Nc1ccc([N+](=O)[O-])cc1[N+](=O)[O-] | -11% |
| C=CCn1c(NC(=O)c2ccc(Br)o2)c(C(=O)OCC)sc1=S | 16µM* |
| Cc1ccc2c(c1)-c1c(cnn1CC(=O)N(CCC#N)c1ccccc1)CO2 | -20% |

Four compounds drawn at random from the list so far, as already listed:
| Structure | HPGD block |
| --- | --- |
| Cc1cccc(OCC(=O)OCC(=O)c2c(N)n(C)c(=O)n(C)c2=O)c1 | -9% |
| Cc1ccc2c(c1)-c1c(cnn1CC(=O)N(CCC#N)c1ccccc1)CO2 | -20% |
| CCOC(=O)c1cnc(SC)nc1Oc1cccc(NS(=O)(=O)c2ccc(Cl)cc2)c1 | -12% |
| O=C(OCC(=O)N1CCCC1)c1cccs1 | -12% |

The list continues:
| Structure | HPGD block |
| --- | --- |
| CCN(CC)/C(=N/S(=O)(=O)c1ccc(C)cc1)c1ccccc1 | -6% |
| O=C(c1ccccc1Cl)N1CCCC(c2nc3c(nnn3Cc3ccccc3)c(=O)[nH]2)C1 (stereo not drawn) | 16µM* |
| CCCN(CCC)C(=O)c1ccc2c(c1)N(Cc1ccccc1)C(=O)CS2=O (stereo not drawn) | -9% |
| O=C(Nc1ccc(Cl)cn1)C1CCCN1S(=O)(=O)c1cccc2ccccc12 (stereo not drawn) | -2% |
| COc1ccc(C(N)CCc2ccc(C)o2)cc1 (stereo not drawn) | -4% |
| COc1cc(OC)cc(C(=O)NC(=S)Nc2ccc(N3CCCC3)cc2)c1 | -11% |
| CC1CCC(NC(=O)CN2C(=O)C3CCCN3c3ncc(Cl)cc32)CC1 (stereo not drawn) | -13% |
| O=c1[nH]c(SCc2n[nH]c(=S)n2-c2ccccc2)nc2ccccc12 | -24% |
| Cc1c(C(=O)O)oc2c1C(O)CC(C)(C)C2 (stereo not drawn) | -6%&2% |
| CCCCS(=O)CC(CS(=O)CCCC)OC(=O)c1ccccc1 (stereo not drawn) | -3% |
| CC1CN(S(=O)(=O)c2cn(C)c(=O)n(C)c2=O)CC(C)O1 (stereo not drawn) | -4% |
| CCCCOC(=O)Cn1c2ccc(OC)cc2c2nc3ccccc3nc21 | -11% |
| COC(=O)CCC(=O)OC1(C)C(=O)C2=CN(Cc3ccco3)C(c3ccc(OC)cc3)=CC2=C(Br)C1=O (stereo not drawn) | -11% |
| O=C1c2[nH]nc(-c3ccccc3O)c2C(c2cccc(Cl)c2)N1Cc1ccco1 (stereo not drawn) | -29% |
| CS(=O)(=O)N1CCC2(CC1)CN(Cc1ccc(C#N)cc1)C2 | -5% |
| Cn1c(=O)c2cc(S(=O)(=O)NCCC(=O)NC3CCCCCC3)ccc2n(C)c1=O | -5% |
| O=[N+]([O-])c1ccc(N2CCN(S(=O)(=O)c3ccc4ccccc4c3)CC2)cc1NCc1ccco1 | -8% |
| Brc1ccc(-c2cnnc(N3CCCC3)n2)cc1 | -14% |
| NS(=O)(=O)c1cccc2c1c([N+](=O)[O-])cc1[nH]c(=O)c(=O)[nH]c12 | 16µM* |
| COc1ccc(N2C(=O)[C@@H]3[C@H](C2=O)[C@H](C(=O)c2ccc(OC(C)=O)cc2)N2N=CC=C[C@@H]32)cc1 | -15% |
| COc1cc(/C=N/NC(=O)CCC(=O)NCc2ccccc2)cc(OC)c1OC | -6% |
| CCCCN(c1ccccc1)S(=O)(=O)c1ccc2c(c1)CCN2C(=O)CCC(=O)O | -13% |
| CCn1c(C)cc2c(c1=O)C(c1ccc3c(c1)OCO3)C(C#N)=C(N)O2 (stereo not drawn) | -15% |
| Cc1nc2ccccn2c1C(=O)N=Nc1c(O)n(CCC(C)C)c2ccccc12 | -1% |
| COc1cccc(/C=C/C(=O)O)c1C(C)C | -15% |
| O=C(NCC1CCCO1)c1cc2ccccc2[nH]1 (stereo not drawn) | ? |
| O=C1CN(CC(=O)Nc2ccc(Cl)cc2)CCN1 | -1% |
| COC(=O)c1ccc(CSc2nnc3ccccn23)o1 | -8% |
| Cc1ccc(NC(=O)/C(=C/c2cccs2)NC(=O)c2ccco2)c(C)c1 | -21% |
| O=C(Oc1ccccc1)c1ccc(COC(=O)c2cnccn2)cc1 | -3% |
| COc1ccc(C2OC(=O)CC2C(=O)NC2CCCC(C)C2C)cc1OC (stereo not drawn) | -11% |
| c1ccc2sc(SCCSc3nc4ccccc4s3)nc2c1 | 0% |
| COc1ccc(S(=O)(=O)N2CCCCC2C(=O)O)cc1 (stereo not drawn) | -2% |
| Cn1c(N)c(C(=O)COC(=O)Cn2cc(C(F)(F)F)ccc2=O)c(=O)n(C)c1=O | 16µM* |
| CC(C)CCn1c(SCC(N)=O)nc2c1c(=O)n(C)c(=O)n2C | -8% |
| Cc1c(NC(C)c2ccccc2O)c(=O)n(-c2ccccc2)n1C (stereo not drawn) | -9% |
| CN1CCN(CC(C)(C)NS(=O)(=O)c2ccc(Cl)cc2)CC1 | -1% |
| O=C(CCC(=O)Nc1ccccc1)N/N=C/c1ccncc1 | 22µM* |
| Cc1ccc(NC(=O)C2CC(=O)N(c3ccc4c5c(cccc35)CC4)C2)cc1 (stereo not drawn) | -15% |
| CC(OC(=O)c1cccs1)C(=O)NCC1CCCO1 (stereo not drawn) | ? |
| CC1(C)Cc2nc3n[nH]c(N)c3cc2CO1 | -12% |
| CCc1ccc(C(=O)NC(CC(C)C)C(=O)O)cc1 (stereo not drawn) | -7% |
| Cc1ccc(S(=O)(=O)NC(=NCC(=O)O)c2ccccc2)cc1 | -5% |
| O=C(O)CCN(CCC(=O)O)c1nnc(SCc2ccccc2)s1 | -25% |
| CCOc1ccccc1N1C(=O)c2ccc(C(=O)Nc3cccnc3)cc2C1=O | -17% |
| O=C(/C=C/c1ccc(Cl)cc1)NC(=S)Nc1ccc(CN2CCOCC2)cc1 | -23% |
| CCn1c(C)c2c(C)nnc(C)c2c1C | -17% |
| CCOC(=O)c1cccc(NC(=O)CSc2nnc(-c3ccncc3)n2CCCOC)c1 | -12% |
| CC(=O)c1c(C)[nH]c(C(=O)OC2CCOC2=O)c1C (stereo not drawn) | 5% |
| O=C(C[n+]1ccc2ccccc2c1)c1ccc2ccc3ccccc3c2c1 | -6% |
| O=C(CSc1nnc(-c2ccncc2)n1Cc1ccco1)Nc1ccccc1Cl | -21% |
| O=[N+]([O-])c1ccc(N2CCN(S(=O)(=O)c3ccccc3)CC2)cc1NCCN1CCOCC1 | -13% |
| CC(=O)Nc1ccc(S(=O)(=O)Oc2ccc(C(=S)N3CCC(O)CC3)cc2)cc1 | 32µM* |
| COC(=O)/C(=C1/Oc2cc3c(cc2S1)OCO3)C(F)(F)F | ? |
| COCCNC(=O)c1c(CSc2ccc(F)cc2)noc1C(=O)NCc1ccccc1 | -13% |
| CCc1nnc(NC(=O)CSc2nnc(-c3ccccc3OC)n2-c2ccc(C)cc2)s1 | -1% |
| O=C(CSc1nccc(=O)[nH]1)N1CCCc2ccccc21 | -10% |
| O=C(COC(=O)Cc1ccc(Br)cc1)NC12CC3CC(CC(C3)C1)C2 | -9% |
| Cc1ccc(CSC2=NCCN2C(=O)c2ccco2)cc1 | -5% |
| O=C(COC(=O)c1cccc(S(=O)(=O)N2CCOCC2)c1)Nc1nc(-c2ccccc2Cl)cs1 | -19% |

New compounds follow
| Structure | HPGD block |
| --- | --- |
| Cc1ccc(C)n1-c1ccccc1N | -6% |
| C=CCc1ccc(OCCOCCN(C)C)c(OC)c1 | 0% |
| Cc1cc2ccccc2n2c(SCC(=O)NCc3cccs3)nnc12 | -14% |
| O=C(NCc1ccco1)C(c1cccs1)N(Cc1ccccc1)C(=O)Cn1nnc2ccccc21 (stereo not drawn) | -5% |
| CCC(C)NS(=O)(=O)c1ccc(NS(C)(=O)=O)cc1 (stereo not drawn) | -14% |
| CCOC(=O)Cn1c(=O)oc2cc(S(=O)(=O)NCc3ccccn3)ccc21 | -6% |
| N=C1N=C(N)c2cc3ccccc3cc21 | ? |
| NS(=O)(=O)c1cccc(NC(=O)CSc2ncc(C(F)(F)F)cc2Cl)c1 | -8% |
| Cc1ncc(C23CC4CC(CC(C4)C2)C3)[nH]1 | -9% |
| CCOC(=O)N1CCN(C(=O)c2cn(-c3ccc(C)c(C)c3)c(=O)c3ccccc23)CC1 | -11% |
| O=C(N/N=C/c1ccc(N2CCCCC2)o1)C(O)(c1ccccc1)c1ccccc1 | 32µM* |
| CC1(C)NC(=O)N(CCOc2cccc(Cl)c2Cl)C1=O | -12% |
| CCN1CCN(Cc2c(O)ccc3c(=O)c(-c4ccccc4OC)coc23)CC1 | ? |
| CCn1c(SCC(=O)Nc2sc3c(c2C#N)CCC(C(C)(C)C)C3)nnc1-c1ccco1 (stereo not drawn) | -23% |
| CCCCOC(=O)Cn1cnc2ccc(Br)cc2c1=O | -2% |
| COc1ccc(-c2nn(-c3ccccc3)cc2/C=C(/C#N)C(N)=O)cc1[N+](=O)[O-] | -25% |
| O=C(O)c1ccccc1N/N=C\c1ccnc2ccccc12 | 13µM* |
| O=C1CSC(c2cccs2)N1c1ccccc1 (stereo not drawn) | -7% |
| CCOCCCNc1nc(=S)[nH]c2cc(OC)c(OC)cc12 | -6% |
| Cc1ccc(S(=O)(=O)NC(CC(=O)O)c2ccccc2)c(C)c1 (stereo not drawn) | -13% |
| COc1ccc(C2N3CC4(C)CN2CC(C)(C3)C4)cc1OC (stereo not drawn) | 1% |
| Cc1cccc2cc3c(N)c(C#N)sc3nc12 | -7% |
| COc1ccc(CNc2nc(-c3cccnc3)nn2C(=O)c2cccs2)cc1 | -27% |
| Cc1nn(-c2ccccc2)c2c1C(c1ccco1)C(C#N)=C(N)O2 (stereo not drawn) | -15% |
| O=c1[nH]c(SCc2ccccc2[N+](=O)[O-])nc2nc[nH]c12 | -24%&-5% |
| O=C(c1cn(-c2ccccc2)nc1-c1cccs1)N(CCO)Cc1ccccc1 | -13% |
| O=C1CC(c2ccc3c(c2)OCO3)Sc2nc3ccccc3n21 (stereo not drawn) | ? |
| CCOC(=O)C1CCN(S(=O)(=O)c2ccc(C)cc2)CC1 | -9% |
| CSc1nc(N2CCCC2)c2c(c1C#N)CC(C)(C)OC2 | -25% |
| CC1SC(=Nc2ccccc2)N(S(=O)(=O)c2ccccc2)C1=O (stereo not drawn) | 4% |
| C/C(=N/NC(=O)Cc1ccccc1)c1ccc(C)s1 | -10% |
| N#C/C(=C(\O)C(=O)O)c1ccc(-c2cccc3ccccc23)cc1 | -3% |
| CN(C)S(=O)(=O)N1CCN(CC(O)COc2ccc3cc(Br)ccc3c2)CC1 (stereo not drawn) | -14% |
| COc1ccc(CCn2c(C)cc(C(=O)CSc3nc(N)cc(=O)[nH]3)c2C)cc1 | -13% |
| CCCCNC(=O)C(=O)N/N=C/c1ccc(OCC(=O)Nc2cccc(OC)c2)c(OC)c1 | ? |
| CCOc1ccc2c(c1)n([O-])c1c([n+]2=O)CCCC1 | ? |
| CC1CCN(S(=O)(=O)c2ccc3[nH]cc(C(=O)NCCN4CCOCC4)c(=O)c3c2)CC1 | ? |
| CCn1cnc2c1c(=O)n(Cc1csc(-c3ccccc3)n1)c(=O)n2Cc1ccccc1 | -28% |
| O=C(NC(=S)Nc1ccc2c(c1)OCCO2)c1cccc(Br)c1 | -16% |
| CCOC(=O)CCNC(=O)CNC(=O)OCc1ccccc1 | 5% |
| CCC1(C)OCC(Cn2c3ccccc3c3ccccc32)O1 (stereo not drawn) | -11% |
| O=C(Cc1ncc(C(F)(F)F)cc1Cl)Nc1ccc(F)cc1 | 2% |

Screening results as filed in PubChem.
